UCH37 inh = inhibitors of human UCH37 deubiquitinase, primary screen, biochemical, Ub-AMC cleavage, fluorescence; Ubiquitin carboxyl-terminal hydrolase isozyme L5 (Homo sapiens), Q9Y5K5; purified proteasome/UCH37; inhibition, % (concentration not given with the values); actives 0.33% (n = 330,000);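 active means mean of two replicates above 20%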;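 further: 0% = compound-free wells with enzyme and 100% = wells lacking proteasome; stock transfer was 100 nL into about 20 µL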
Target sequence (Q9Y5K5 whole entry, looked up): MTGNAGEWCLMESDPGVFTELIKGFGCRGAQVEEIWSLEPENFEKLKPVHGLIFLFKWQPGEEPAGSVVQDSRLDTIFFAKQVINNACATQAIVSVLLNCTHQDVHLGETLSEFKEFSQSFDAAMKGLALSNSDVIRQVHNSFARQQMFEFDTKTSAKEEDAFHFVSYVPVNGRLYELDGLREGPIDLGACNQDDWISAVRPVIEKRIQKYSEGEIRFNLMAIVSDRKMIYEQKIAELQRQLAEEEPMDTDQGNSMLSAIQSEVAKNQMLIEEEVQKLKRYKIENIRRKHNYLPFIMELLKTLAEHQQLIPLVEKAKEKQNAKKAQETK
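Assay system: Proteasome-bound UCH37. Buffer or medium: pH 7.4 Tris-HCl (50 mM) with ovalbumin, ATP-MgCl2, DTT. Incubation: 30 min preincubation with enzyme, 25 min cleavage at room temperature. Measured by: fluorescence, ex 355 nm, em 460 nm. Read-out basis: percent inhibition. Control set: wells without proteasome as full block, compound-free enzyme plus substrate as uninhibited.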
E coli growth = E. coli growth inhibition, primary screen, OD600 | Escherichia coli growth, 23 h; stronger effect = lower value | OD600 absorbance (concentration not given with the values) | AID 1053175, 2014 | actives 0.21% (n = 330,000);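 active means OD600 absorbance below the run mean of sample wells minus 3.6 SD, in any replicate, cut at about 0.56 in these data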;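 further: stock transfer was 300 nL into about 60 µL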
Beta2AR agonist = beta2AR agonists driving receptor internalization, primary screen, cell-based, FAP fluorogen, flow cytometry; Beta-2 adrenergic receptor (Homo sapiens), P07550; Am2.2-beta2AR cells; reference of the scale not given here; response, % (no concentration beside the values); actives 0.43% (n = 340,000);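 active means response above a set limit, near 3 SD of response in nonfluorescent compounds, cut at about 42% in these data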;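 further: stock transfer was 100 nL into about 11 µL; a reference agonist was the positive control; negative values mostly stem from fluorescent compounds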
rRNA inh HTS = reduced GFP signal of wild-type E. coli, primary screen, bacterial rRNA inhibitor project, GFP/RFP fluorescence, OD600, single point; GFP signal change (wild-type ribosome), % (test concentration not listed); actives 1.6% (n = 350,000); E. coli WT GFP vs humanized-ribosome RFP mutants, 24 h; stronger effect = lower value; DMSO median 0, no signal -100;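 active means significant combined selectivity score with lowered wild-type GFP, culture density cut under 30%, mutant RFP and density less affected; inactive means any of these conditions unmet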; further: one replicate is shown; some compounds called inactive have numbers as strong as hits
ALR inh = inhibitors of human ALR sulfhydryl oxidase, primary screen, biochemical, H2O2 detection, HRP-luminol luminescence, single point; FAD-linked sulfhydryl oxidase ALR (Homo sapiens), P55789; purified ALR, DTT oxidation; AID 485317, 2010; inhibition, % (concentration not given with the values); actives 3.8% (n = 290,000);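 active means mean and each replicate at 75% or more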;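 further: stock transfer was 7.5 nL into about 7.5 µL; 0% = neutral wells and 100% = wells with inactivated enzyme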
Target sequence (P55789 whole entry, looked up): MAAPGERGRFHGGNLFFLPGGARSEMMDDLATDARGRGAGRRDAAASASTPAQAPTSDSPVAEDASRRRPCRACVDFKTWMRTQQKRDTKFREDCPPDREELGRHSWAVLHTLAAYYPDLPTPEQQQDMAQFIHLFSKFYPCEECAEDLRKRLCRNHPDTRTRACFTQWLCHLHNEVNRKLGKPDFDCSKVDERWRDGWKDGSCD
HNF4A DNA FP = change in binding of human HNF4A to DNA, primary screen, biochemical, fluorescence polarization, FITC-DNA. actives 0.3% (n = 360,000). Hepatocyte nuclear factor 4-alpha (Homo sapiens), P41235. activity change, % at 10 µM. AID 1224865, 2016. 1 h; in the data active means activity change above about 30%, passing the limit was not always enough;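 further: controls were the assay level and a saturating level of protein; the project sought stronger binding though the title names inhibitors; some compounds called inactive have numbers as strong as hits; positive values seem to mean higher polarization but the record does not say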
Target sequence (P41235 whole entry, looked up): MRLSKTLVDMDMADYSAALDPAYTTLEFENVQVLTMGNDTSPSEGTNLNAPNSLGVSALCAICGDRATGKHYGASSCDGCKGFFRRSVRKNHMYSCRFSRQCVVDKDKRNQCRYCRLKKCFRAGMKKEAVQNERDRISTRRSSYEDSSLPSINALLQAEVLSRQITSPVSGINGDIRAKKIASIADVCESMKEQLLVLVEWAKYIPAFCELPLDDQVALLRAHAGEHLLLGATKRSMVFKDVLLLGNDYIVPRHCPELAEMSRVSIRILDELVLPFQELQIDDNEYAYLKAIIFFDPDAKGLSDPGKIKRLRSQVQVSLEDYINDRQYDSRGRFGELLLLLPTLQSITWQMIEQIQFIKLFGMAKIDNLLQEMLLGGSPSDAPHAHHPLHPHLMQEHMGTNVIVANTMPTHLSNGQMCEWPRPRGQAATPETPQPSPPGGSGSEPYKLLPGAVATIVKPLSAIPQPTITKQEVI
FGF22 binding = binders of human FGF22 protein, primary screen, FGF22 synaptogenesis inhibitor project, biophysical, thermal shift, single point. Fibroblast growth factor 22 (Homo sapiens), Q9HCT0. calls only at 9.99 µM. recombinant FGF22 thermal shift, SYPRO orange fluorescence; percent of sucrose octasulfate shift, DMSO zero. actives 1.5% (n = 340,000);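 active means melting point raised past a set limit in the mean and every replicate; three in four hits are not shown here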
rRNA inh HTS OD600 = also measured in rRNA inh HTS; calls as there; OD600 change, %; measured here: OD600 growth;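 optical density of the mix in the first replicate; 0 = DMSO median and -100 = no signal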
rRNA inh HTS RFP = further read-out of rRNA inh HTS, marked with its call; RFP signal change, %; measured here: RFP humanized mutant strains;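 first replicate; 0 = DMSO median and -100 = no signal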
* marks the source's active call; other numbers are inactive results; i = inactive; . = no result given.

SMILES	UCH37 inh	E coli growth	Beta2AR agonist	rRNA inh HTS	rRNA inh HTS OD600	rRNA inh HTS RFP	ALR inh	HNF4A DNA FP	FGF22 binding
CCC1CCCCN1C(=O)CSC1=NN2CCCC(=O)N=C2S1 (stereo not drawn)	2.3	0.652	-16.8	0.0	-12.7	-5.8	-4.1	-4.1	i
O=S(=O)(c1ccc(S(=O)(=O)N2CCCC2)cc1)N1CCCCCC1	0.6	0.673	5.5	4.6	1.4	-5.1	-11.5	-2.2	i
CCOc1ccc(C(=O)NCC(=O)OCc2c(F)cccc2Cl)cc1OCC	.	.	9.5	-0.4	-2.2	-2.3	8.8	-0.5	i
Cc1c(C(=O)NCC(c2ccco2)N2CCCC2)sc2ccccc12 (stereo not drawn)	0.5	0.656	-9.6	-5.8	-1.7	3.8	-4.4	2.3	i
CCCC(=O)c1cc2cc(Cl)ccc2oc1=O	3.4	0.714	7.6	.	.	.	-0.8	-2.2	.
Cc1nnc(NC(=O)c2nn(CC(C)C)c(=O)c3ccccc23)s1	3.7	0.711	-8.2	12.9	5.6	-5.7	-3.2	1.9	i
Cc1csc2c(N3CCN(C(=O)Nc4ccccc4)CC3)ncnc12	4.1	0.622	7.5	-27.9*	-5.4*	-2.8*	-3.6	2.3	i
CCC1(CC)NC(=O)N(CC(=O)OC(C)C(=O)Nc2ccc(NC(C)=O)cc2)C1=O (stereo not drawn)	0.5	0.671	-3.8	0.7	6.4	-1.6	-1.3	1.4	i
Cc1c(C(=O)NNC(=S)Nc2cccc(Cl)c2)nnn1-c1ccccc1	2.7	0.697	0.2	.	.	.	90.6*	2.2	.
COc1ccc(-c2cc(C(=O)OCC(=O)c3ccc(C)c([N+](=O)[O-])c3)c3ccccc3n2)cc1	-67.1	0.758	-3.0	.	.	.	-6.2	-3.9	.
O=C(NCC1CCN(C(=O)c2cccc([N+](=O)[O-])c2)CC1)c1cccc([N+](=O)[O-])c1	1.8	0.699	-2.4	3.9	8.2	-3.2	.	-3.3	i
OC(COC1CCCCC1)CN1CCN(c2ccccc2)CC1 (stereo not drawn)	1.3	0.705	-6.2	.	.	.	91.6*	0.2	.
CS(=O)(=O)c1ccc(Cl)c(NC(=O)COC(=O)c2ccc(F)cc2Cl)c1	0.8	0.755	3.1	7.7	9.9	-0.5	-5.0	-1.6	i
O=C(CNC(=O)c1ccc(Cl)cc1)NNc1c(F)c(F)cc(F)c1F	-0.4	0.691	-7.1	-9.2	-10.7	1.9	.	-10.2	i
CCOC(=O)C1CCCN(S(=O)(=O)c2ccccc2)C1 (stereo not drawn)	1.6	0.655	-2.6	.	.	.	.	1.5	.
CCOc1ccc(CN(CCO)CCO)cc1[N+](=O)[O-]	1.0	0.692	-2.1	.	.	.	-10.1	-0.8	.
OC1CCN(c2ncnc3c2nnn3Cc2c(F)cccc2Cl)CC1	3.1	0.673	4.9	.	.	.	-2.2	4.0	.
CN(C)c1nnnn1-c1ccc(Cl)cc1Cl	1.6	0.681	-1.4	6.4	7.5	3.3	-0.3	1.7	i
CCn1cc(C(=O)O)c(=O)c2cc(F)c(N3CCN(S(=O)(=O)c4ccc5c(c4)OCCO5)CC3)cc21	-134.3	0.083*	-9.7	-38.7	-69.6	-8.0	.	-1.8	i
COc1ccc(-c2nn(Cc3ccccc3)cc2C(=O)N2CCN(c3ccccn3)CC2)cc1OC	-3.1	0.649	-8.9	-1.2	-9.0	1.3	0.2	-2.8	i
O=C(O)C1CCCN1C(=O)OCC1c2ccccc2-c2ccccc21 (stereo not drawn)	2.5	0.692	2.6	-17.5	-10.2	-4.0	-5.0	1.2	i
O=C(NCCC1=CCCCC1)C1CCN(S(=O)(=O)c2cccs2)CC1	10.0	0.723	-0.8	.	.	.	-41.5	3.1	i
CS(=O)(=O)N1CCN(C/C=C/c2ccccc2)CC1	2.4	0.641	-2.4	.	.	.	-6.6	-0.6	.
CC(=O)Nc1ccc(-c2nn[nH]n2)cc1Cl	4.0	0.668	-4.6	.	.	.	8.9	4.6	.
O=C(N/N=C/c1ccccn1)c1ccc([N+](=O)[O-])cc1	.	.	-5.4	22.7	19.4	1.4	-5.4	-2.4	i

3 compounds already listed, arranged by the value under rRNA inh HTS, ascending.
| compound | rRNA inh HTS |
| --- | --- |
| Cc1csc2c(N3CCN(C(=O)Nc4ccccc4)CC3)ncnc12 | -27.9* |
| CCOc1ccc(C(=O)NCC(=O)OCc2c(F)cccc2Cl)cc1OCC | -0.4 |
| Cc1nnc(NC(=O)c2nn(CC(C)C)c(=O)c3ccccc23)s1 | 12.9 |

Other results follow:
SMILES	UCH37 inh	E coli growth	Beta2AR agonist	rRNA inh HTS	rRNA inh HTS OD600	rRNA inh HTS RFP	ALR inh	HNF4A DNA FP	FGF22 binding
CCOc1ccc(N2CC(C(=O)OC)CC2=O)cc1 (stereo not drawn)	1.4	0.747	-3.6	.	.	.	4.1	49.8*	.
COc1cccc(CN(C)CC(O)COc2cc(Cl)ccc2Cl)c1 (stereo not drawn)	0.2	0.625	-9.4	-33.6	-50.0	-2.9	-1.0	-1.5	i
CCn1c(CNc2ccc(C)cc2)nnc1SCC(=O)NCc1ccccc1	4.5	0.67	-5.5	-4.9	-7.6	-6.6	85.7*	4.0	i
CCOC(=O)C1CCCN(C(=O)Cn2nc(C)n3c(cc4c(OC)cccc43)c2=O)C1 (stereo not drawn)	i	0.694	2.1	10.6	8.6	5.9	-13.4	2.3	i
O=C(c1cc(COc2ccc(F)cc2Cl)on1)N1CC[C@@H]2CCCC[C@H]2C1	1.9	0.696	-6.5	1.1	0.9	-0.6	-5.9	1.7	i
CCOC(=O)C1=C(c2ccccc2)Nc2ncnn2C1c1cc(OC)cc(OC)c1OC (stereo not drawn)	0.3	0.694	-3.0	.	.	.	-0.7	-1.0	.
COc1cc(/C=C2/N=C(c3ccccc3)OC2=O)c(F)cc1OCc1ccccc1	-0.8	.	-3.1	-3.5	-1.5	1.2	-2.1	-4.1	i
O=C(N/N=C/c1cccnc1)c1ccc(NC(=O)c2ccccc2Cl)cc1	.	.	2.8	-5.9	-7.9	-3.4	-0.5	1.5	i
Cc1occc1C(=O)Nc1cccc([N+](=O)[O-])c1	6.4	0.72	0.0	.	.	.	0.2	1.0	.
COc1ccc(Cl)cc1NC(=O)Cn1c(C)csc1=O	2.7	0.656	1.5	.	.	.	-2.8	3.2	i
Cc1ccc(NS(=O)(=O)c2cccc3cccnc23)c(Cl)c1	5.2	0.674	5.1	6.4	1.2	1.8	-20.4	0.5	i
CCOC(=O)C1=C(COC(=O)CNS(=O)(=O)c2ccc(C)cc2)NC(=O)NC1C (stereo not drawn)	3.6	0.688	3.0	-0.9	-0.8	0.1	-4.7	-0.9	i
CN(C)CCCNC(=O)CC1C[C@H](C(=O)N2CCCCC2)[C@@]2(CCc3ccccc3)c3[nH]c4ccccc4c3CCN2C1=O (stereo partly drawn)	2.9	0.7	34.1	26.3	14.5	8.9	-3.9	3.2	i
COc1cc(OC)cc(N(C(=O)C2COc3ccccc3O2)C(C(=O)NC2CCCCC2)c2ccc(O)cc2)c1 (stereo not drawn)	2.6	0.695	14.5	.	.	.	4.2	0.9	.
COCCOCCn1cnc2ccccc21	-0.1	0.707	3.5	.	.	.	-1.5	-2.8	.
O=C(CN1CCCCCC1)Nc1ccc([N+](=O)[O-])cc1Cl	1.6	0.604	1.2	19.8	10.8	2.2	-8.8	0.6	i
CC1(C(=O)Nc2ccc3c(c2)OCCO3)CCN1C(=O)C1(c2ccccc2)CC1 (stereo not drawn)	.	.	.	-4.2	-4.7	-1.1	.	4.3	i
Cc1cc(N)ccc1-n1nc2ccccc2n1	-31.3	0.684	-80.1	-1.1	2.4	1.2	-4.1	-4.2	i
CO[C@@]12[C@@H]3N[C@@H]3CN1C1=C(C(=O)C(N)=C(C)C1=O)[C@@H]2COC(N)=O	.	.	-7.8	13.5	14.9	3.3	.	-3.4	.
CCOc1ncccc1C(=O)Nc1nnc(C)s1	1.5	0.622	3.9	1.1	-5.8	-4.1	10.9	4.7	i
COc1ccccc1NC(=O)C(=O)NNC(=O)c1ccco1	6.0	0.705	4.3	.	.	.	0.0	-5.5	.
CC1C(=O)N(Cc2cn(CCC3OCCCO3)nn2)CCS(=O)(=O)N1Cc1ccc(-c2ccc(Cl)nc2)cc1 (stereo not drawn)	.	.	.	-9.7	-5.3	3.1	.	0.8	i
COc1ccc(CC(=O)Nc2sc3c(c2C(N)=O)CCCC3)cc1	2.8	0.691	-17.9	-21.2	-21.5	-2.3	-4.4	-2.9	i
C[C@]12c3[nH]c4ccc(Cl)cc4c3CCN1C(=O)[C@@H](CC(=O)NCCCn1ccnc1)C[C@@H]2C(=O)N1CCCCC1	-0.6	0.709	-1.5	-23.4	-22.4	-0.5	.	1.3	i
Brc1cc2ccccc2[n+](Cc2ccccc2)c1	0.3	0.673	3.9	0.5	-5.9	0.1	.	-1.5	i

Other results
SMILES	UCH37 inh	E coli growth	Beta2AR agonist	rRNA inh HTS	rRNA inh HTS OD600	rRNA inh HTS RFP	ALR inh	HNF4A DNA FP	FGF22 binding
Cc1cccc(SC2CCN(C(=O)C3CCC(=O)N(C4CC4)C3)CC2)c1 (stereo not drawn)	4.3	0.693	5.8	3.7	8.7	0.4	-1.6	0.5	i
COc1ccc(NC(=O)c2nc[nH]c2C(=O)N[C@@H](C)c2ccccc2)cc1	-0.1	.	25.5	-26.1	-49.7	10.1	5.7	1.1	i
CCOc1cc(C)c(S(=O)(=O)Nc2ccc(Cl)cn2)cc1C	0.8	0.664	-1.4	.	.	.	-3.6	-0.4	.
CCC(CC)C(=O)Nc1cccc(C(=O)NC(C)(C)C)c1	-1.1	0.628	-4.3	6.1	3.2	-0.3	-4.6	2.5	i
CCc1ccc(Nc2ncc3c(n2)CC(C)CC3=O)cc1 (stereo not drawn)	-4.1	0.705	0.2	5.9	9.9	-0.2	-7.2	-0.2	i
O=C(CSc1nnc(CNC(=O)c2ccccc2)o1)NCc1ccco1	0.7	0.696	-3.0	4.4	11.2	0.2	0.5	2.0	i
CCCOC(=O)C1C2C=CC3(CN(c4cccc(Cl)c4)C(=O)C13)O2 (stereo not drawn)	0.9	0.69	6.5	-4.4	0.4	-1.8	-1.6	1.1	i
CCOC(=O)c1ccccc1NC(=O)c1cccc([N+](=O)[O-])c1	-0.9	0.65	5.3	18.8	13.9	0.5	0.7	0.5	i
COc1ccccc1-c1c(C)oc2cc(OCC(=O)OCc3ccccc3)ccc2c1=O	5.4	0.69	10.2	-10.0	-2.9	-0.9	-3.5	0.5	i
CC1CCN(CCOCCOc2ccc(Cl)cc2Br)CC1	1.9	0.604	7.9	-29.5*	-22.9*	-3.8*	-4.7	0.9	i
O=c1c(C(c2c(O)nc3n(c2=O)CCS3)c2cccc3ccccc23)c(O)nc2n1CCS2	-0.4	0.698	-0.1	.	.	.	96.1*	0.3	.
Cc1ccc(N2C(=O)C3C4C=CC(C4)C3C2=O)cc1C (stereo not drawn)	-0.4	0.664	6.3	.	.	.	15.9	-1.9	.
Cc1cccc(C)c1NC(=O)C1(C)CN(S(C)(=O)=O)CC(=O)N1CC(F)(F)F (stereo not drawn)	.	.	.	6.1	3.8	3.6	.	4.2	i

Screening data (PubChem BioAssay)

This is a subset, so the mix of outcomes need not match the whole.
